Compound activity: PubChem, National Center for Advancing Translational Sciences (NCATS)
TRPML1 agonist: activates the human TRPML1 channel; Q9GZU1; TRPML1-expressing cells, Ca2+ dye fluorescence, FDSS; host cell line not named in the record; reference of the full effect not given here; activation, % (concentration not given with the values); 0.12% of 410,000 active; in the data active = activation above about 50%; inconclusive = about 30% to 50%; inactive = below about 30%; also: 0% is about no effect; the text of the record puts the active cut at 80%
Target sequence (Q9GZU1 whole entry, looked up): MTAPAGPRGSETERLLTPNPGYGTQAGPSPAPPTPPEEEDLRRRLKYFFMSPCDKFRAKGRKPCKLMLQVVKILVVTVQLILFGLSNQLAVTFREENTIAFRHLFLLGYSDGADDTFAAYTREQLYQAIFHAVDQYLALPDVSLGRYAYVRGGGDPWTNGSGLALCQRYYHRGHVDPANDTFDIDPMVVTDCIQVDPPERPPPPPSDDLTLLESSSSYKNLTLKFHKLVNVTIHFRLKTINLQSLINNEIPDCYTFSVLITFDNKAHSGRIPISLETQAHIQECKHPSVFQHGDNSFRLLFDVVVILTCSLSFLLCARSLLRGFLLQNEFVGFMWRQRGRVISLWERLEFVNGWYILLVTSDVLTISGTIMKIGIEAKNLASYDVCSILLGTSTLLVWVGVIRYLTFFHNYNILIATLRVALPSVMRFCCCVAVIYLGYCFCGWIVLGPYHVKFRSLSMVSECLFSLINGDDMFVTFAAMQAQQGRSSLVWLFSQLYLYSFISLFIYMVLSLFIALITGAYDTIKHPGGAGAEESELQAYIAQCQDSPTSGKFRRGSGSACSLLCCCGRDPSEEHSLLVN
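Calcium fluorescence on an FDSS kinetic reader gave the read-out. Tet-induced TRPML1-DL cells were plated overnight, dye-loaded (Ca8 with quencher, 45-90 min, room temperature, dark), then read 110 s after compound addition, and again 110 s after 4uM final 54-4 (EC80).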
TRPML1 inh: human mucolipin-1 channel inhibition; TRPML1-inducible cells, Ca2+ dye fluorescence, FDSS; hits give low values; inhibition of EC80 agonist-evoked calcium signal; activity change, negative = inhibition, % (test concentration not listed); 0.02% of 390,000 active; in the data active means activity change below about -50%; inconclusive means about -30% to -50%; inactive means above about -30%;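 also: stimulus is agonist 54-4 at its EC80 concentration; % is scaled to controls: 0 for no effect and ±100 for the full control effect; compound concentration not given in the record; the text of the record puts the active cut at -80%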
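Calcium fluorescence in TRPML1-DL cells induced overnight with Tet: a 110 s read after compound pin addition, then a 110 s antagonist read after challenge with 54-4 at 4 uM final (EC80).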
Six1-Eya2 inh: inhibitors of human Six1/Eya2 interaction; 0.56% of 360,000 active; Q15475+O00167; activity change, % (test concentration not listed); AlphaScreen GST-Six1/His-Eya2 binding, biochemical; hits give low values; control for the full effect not named in the record; AID 651725; in the data active = activity change below about -65%; inconclusive = about -30% to -65%; inactive = above about -30%; also: % is scaled to controls: 0 for no effect and ±100 for the full control effect; compound concentration not given in the record
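AlphaScreen luminescence read after one hour at 37 °C in darkness. Pin-transferred compounds met GST-Six1 and His-Eya2 protein (5X stock 250 nM/500 nM) plus glutathione donor and Ni-chelate acceptor beads (5X, 50 ug/mL).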
D2 PAM: positive allosteric modulators of human D2 dopamine receptor. DiscoveRx D2 beta-arrestin cells, luminescence, 90 min; 100% = 57 uM dopamine signal. 0.23% of 360,000 active. potentiation, % (concentration not given with the values); active = potentiation of 50% or more; inconclusive = 30% to 50%; inactive = 30% or less;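 also: compound concentration not given in the record; tested on top of an EC20 dose of dopamine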
Target sequence (P14416 whole entry, looked up): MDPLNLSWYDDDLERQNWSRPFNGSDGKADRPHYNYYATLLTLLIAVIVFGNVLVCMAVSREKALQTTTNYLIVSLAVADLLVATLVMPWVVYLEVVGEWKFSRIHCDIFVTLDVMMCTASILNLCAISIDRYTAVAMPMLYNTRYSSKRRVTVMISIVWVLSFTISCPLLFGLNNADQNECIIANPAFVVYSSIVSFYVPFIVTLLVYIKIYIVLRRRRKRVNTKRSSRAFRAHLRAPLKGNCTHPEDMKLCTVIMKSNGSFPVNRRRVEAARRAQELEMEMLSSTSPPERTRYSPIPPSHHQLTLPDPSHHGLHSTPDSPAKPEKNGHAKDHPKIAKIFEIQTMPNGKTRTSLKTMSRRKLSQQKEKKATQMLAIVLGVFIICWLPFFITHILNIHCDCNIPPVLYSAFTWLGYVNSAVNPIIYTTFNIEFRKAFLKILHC
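PathHunter beta-arrestin assay in DiscoveRx D2 cells. Compounds were added with an EC20 of dopamine (50 nM final) for 90 min at 37 deg C. Luminescence was read 1 h after detection reagent, with 57 uM dopamine as the EC100 control.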
D2 ag: activates the human D2 dopamine receptor; DiscoveRx PathHunter D2 beta-arrestin, luminescence, 90 min; 100% = 57 uM dopamine signal; activation, % (no concentration beside the values); 0.084% of 360,000 active; in the data active = activation above about 40%; inconclusive = about 15% to 40%; inactive = below about 15%; also: compound concentration not given in the record; the text of the record calls up to 30% inactive
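DiscoveRx PathHunter D2 beta-arrestin cells (2,100/well) attached overnight, then compound-stimulated 90 min at 37 C in HBSS/10 mM HEPES/0.1% Tween-20 buffer; beta-galactosidase complementation read by luminescence after 1 h at ambient temperature. Dopamine 57 uM final (EC100) as control.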
PINK1 expr mod: changes PINK1 expression. PINK1 immunofluorescence, high-content cytometry, 24 h. Potency, µM (doses to about 76.6 µM), for the others: at the highest dose activation (PINK1 increase), usual class: activators. 0.2% of 410,000 active; active = well fitted activation curve with a large enough effect; inconclusive = small, poorly fitted or top-dose-only effect; inactive = flat fitted curve, though single readings scatter; cell line not stated here;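 also: potency is read from the fitted curve at half-maximal effect; % of control where 0% means no effect; nearly all actives have a fitted effect of over 65% in size; a mitochondrial uncoupler was the plate control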
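PINK1 protein, normally rapidly degraded, was detected by immunofluorescence after 24 hour compound treatment of a stable cell line. Titration data (5 concentrations) came from laser-scanning cytometry, with CCCP-treated wells as controls.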
* = called active by the depositor; ? = inconclusive; nt = no result given; [ ] = remark or other dose.

SMILES	TRPML1 agonist	TRPML1 inh	Six1-Eya2 inh	D2 PAM	D2 ag	PINK1 expr mod
COc1ccccc1C(=O)NCCCNC(=O)c1cccnc1	0.6	7	4	-4	-2.6	0.9%
CCOC(=O)/C=C1\SCC(=O)N1CC(=O)NCCc1ccc(F)cc1	-0.5	-10	3	0	0.0	2.2%
CCOc1cc(C(=O)N=c2sccn2C)ccc1OC(F)F	0.6	-4	10	-11	0.4	-0.5%
Nc1nc(-c2ccc(Cl)cc2)nn1C(=O)c1ccco1	0.0	1	-3	-10	-3.6	0.3%
CN(C)C(CNC(=O)c1cc2ccccc2oc1=O)c1ccccc1 (configuration not stated)	-0.1	9	-2	-6	-1.2	4.0%
Cc1ccc(SC(C)C(=O)NC(N)=O)c(C)c1 (configuration not stated)	-0.6	-6	4	-2	-3.9	-0.4%
COC1(NC(=O)c2ccccc2)C(C)=CC(=O)C=C1C	2.0	31	1	-5	-2.0	0.0%
Cc1ccc(S(=O)(=O)NCCCOC(=O)Nc2ccncc2)cc1	0.7	4	-1	-20	-2.9	-1.9%
COc1cc(NC(=O)c2ccco2)c(OC)cc1NC(=O)Nc1ccc(Cl)cc1	1.1	11	-8	21	7.4	?
CC1(C(=O)NS(=O)(=O)c2cccs2)CCN1C(=O)C1(c2ccccc2)CCCC1 (configuration not stated)	-1.0	nt	10	6	-3.4	-0.7%
Cc1cccc(CN(C(=S)Nc2c(C)cccc2C)c2cccnc2)c1	-0.9	-1	-5	1	0.1	-0.5%
CCn1c(N)c(C(=O)COC(=O)CCc2nc3ccccc3c(=O)[nH]2)c(=O)[nH]c1=O	1.3	-6	6	-1	-3.1	?
CCc1ccc(NC(=O)C2CCCN2c2nn3c(=O)cc(C)nc3s2)cc1 (configuration not stated)	0.8	-2	25	-4	0.1	2.9%
CCCc1c(O)nc(SC2CC(=O)N(c3ccc(C)c(Cl)c3)C2=O)[nH]c1=O (configuration not stated)	0.5	-10	-1	-9	-3.2	-0.7%
CC(C)N(Cc1ccccc1)C(=S)Nc1cccnc1	0.4	-11	6	-2	0.8	1.2%
CC1Cc2ccccc2N1S(=O)(=O)c1cccc2nsnc12 (configuration not stated)	2.6	31	-19	-3	-2.1	-1.8%[38.3 µM]
O=C(Cn1c(=O)n(-c2ccccc2)c(=O)c2ccc(C(=O)NCc3ccc4c(c3)OCO4)cc21)Nc1ccc(F)cc1	1.7	4	nt	nt	nt	-5.4%
O=C(Nc1cccc(F)c1)C1CCCN(S(=O)(=O)c2ccccc2)C1 (configuration not stated)	0.3	15	-5	-11	-0.1	0.1%
Cc1ccc(C(C(=O)NC2CCCCC2)N(C(=O)CCCC(=O)Nc2ccccn2)c2ccc3c(c2)OCCO3)cc1 (configuration not stated)	0.1	8	-2	-6	-2.9	2.4%
CS(=O)(=O)NCCn1ccc2ccccc21	0.5	-17	17	-3	-0.8	0.4%

Reprinted at random: 2 compounds from above, in no set order.
SMILES	TRPML1 agonist	TRPML1 inh	Six1-Eya2 inh	D2 PAM	D2 ag	PINK1 expr mod
CS(=O)(=O)NCCn1ccc2ccccc21	0.5	-17	17	-3	-0.8	0.4%
CCOc1cc(C(=O)N=c2sccn2C)ccc1OC(F)F	0.6	-4	10	-11	0.4	-0.5%

New compounds follow.
SMILES	TRPML1 agonist	TRPML1 inh	Six1-Eya2 inh	D2 PAM	D2 ag	PINK1 expr mod
CC1(C)CN(c2ccc(F)cc2)C1=O	-0.1	-25	11	-2	-2.3	1.3%
O=C1NC(=Nc2ccccc2)S/C1=C\c1cccs1	2.3	-1	-29	-18	-4.2	6.9%
CCC(=O)Nc1cccc(NC(=O)c2cc3ccccc3o2)c1	-1.0	9	-4	-27	-0.4	-1.3%
O=C(O)/C=C/c1coc2ccccc2c1=O	4.2	-14	2	0	-5.0	-0.6%
CC(C)(C)C1CCC2(CC1)Nc1cccc3cccc(c13)N2	-0.2	-8	5	-10	-1.2	2.1%
CCOC(=O)N/N=C/c1cn(CCCOc2ccc(C)cc2)c2ccccc12	4.2	-18	4	8	3.8	3.9%
CN(CCOc1ccc(Cl)cc1)C(=O)c1ccc2c(=O)n3c(nc2c1)CCC3	-0.6	0	3	28	-0.1	3.2%
C/C(=N/NC(=O)CN1CCN(S(=O)(=O)c2ccc(Br)cc2)CC1)c1ccco1	1.1	-21	-7	9	0.2	-1.9%
COc1ccc(C(C)(O)c2nc(-c3ccc(F)cc3OC)cs2)cc1 (configuration not stated)	-0.5	nt	1	-4	5.0	16%
COc1ccc(-c2c(C)nc(N)nc2-c2ccc(OCc3ccc(C)cc3)cc2O)cc1OC	1.7	46	-20	-3	-3.1	?
CC(C)(C)c1csc(NC(=O)c2ccncc2)n1	-0.6	31	9	-4	7.7	1.7%
COc1ccccc1N1CCN(S(=O)(=O)c2cc(C)sc2C)CC1	1.0	-8	-2	-6	-2.8	1.9%
CCOc1cc(/C=C(\C#N)C(=O)Nc2ccccc2C(=O)O)ccc1OC(=O)c1ccc(C)cc1	-0.2	16	-7	-2	1.5	1.0%
COc1ccc(-c2ccc(SCC(=O)NC3CCCC3)nn2)cc1	-0.6	-4	7	-10	-1.9	4.1%
O=C(C1=C[C@@H](C2CC2)C[C@@H](OCc2ccc(CO)cc2)O1)N1CCN(Cc2ccccc2)CC1	1.4	-4	-4	-13	-1.0	-0.4%
O=C(Cn1nnc(-c2ccccc2F)n1)Nc1ccc(S(=O)(=O)NC2CCCC2)cc1	0.5	2	2	-7	2.4	?
COc1ccccc1NC(=O)c1ccccc1NC(=O)c1ccccc1	-0.2	0	nt	nt	nt	1.4%
CCOC(=O)N1CCc2c(sc3c2c(=O)n(Cc2ccccc2)c(=O)n3CC(=O)Nc2cccc(CC)c2)C1	0.8	11	nt	nt	nt	0.4%
Cc1ccc(-n2nc3c(c2NC(=O)c2cccs2)CS(=O)(=O)C3)cc1C	0.8	14	-2	-21	-8.4	-0.3%
CN(CC(=O)Nc1cccc(F)c1)C(=O)c1ccc(NC2CC2)c([N+](=O)[O-])c1	0.5	3	-7	-20	-3.7	0.4%
COc1ccc(C2C(=O)N(C3CCCCC3)CC(=O)N2CCC2=CCCCC2)cc1 (configuration not stated)	4.6	-14	nt	nt	nt	1.7%
CCOC(=O)N(C)C[C@@H]1OCc2cnnn2CCCC(=O)N([C@@H](C)CO)C[C@@H]1C	-0.4	8	8	-8	-9.6	1.9%
COc1cc(C2SCC(=O)N2Cc2ccccc2)cc(OC)c1OC (configuration not stated)	-0.2	7	0	0	-5.8	1.1%
CCN(CC)S(=O)(=O)c1ccc(F)c(C(=O)NCCCN2CCOCC2)c1	0.3	18	4	-15	-3.9	3.9%[38.3 µM]
Cc1ccc(-c2ccc(SCC(=O)c3ccccc3)nn2)cc1	3.1	-16	6	-10	-1.1	0.2%
CCC(CC)C(=O)Nc1cccc(-c2ccc3nncn3n2)c1	0.6	10	4	-2	-1.7	1.0%
C=CCOC(=O)c1ccc(-n2cncn2)nc1	-0.4	-5	4	-6	-1.6	-0.9%
Cc1cc(C(=O)N2CCC2(C)C(=O)NS(=O)(=O)c2ccc(F)cc2F)nn1C (configuration not stated)	-0.2	nt	7	2	-2.5	3.5%
CCCCOc1ccc(C(=O)Nc2nc3c(s2)CC(C)CC3)cc1 (configuration not stated)	-0.5	9	nt	nt	nt	4.1%
O=C(COC(=O)c1cc(-c2ccccc2)nc2ccccc12)NC1CC1	2.3	4	0	1	-6.5	1.8%

Molecules from the list above with a tert-butyl group (2):
SMILES	TRPML1 agonist	TRPML1 inh	Six1-Eya2 inh	D2 PAM	D2 ag	PINK1 expr mod
CC(C)(C)C1CCC2(CC1)Nc1cccc3cccc(c13)N2	-0.2	-8	5	-10	-1.2	2.1%
CC(C)(C)c1csc(NC(=O)c2ccncc2)n1	-0.6	31	9	-4	7.7	1.7%

Arranged by value in TRPML1 inh (low to high): some entries from above
smiles	TRPML1 inh
CC(C)N(Cc1ccccc1)C(=S)Nc1cccnc1	-11
Cc1ccc(S(=O)(=O)NCCCOC(=O)Nc2ccncc2)cc1	4
CCCCOc1ccc(C(=O)Nc2nc3c(s2)CC(C)CC3)cc1 (configuration not stated)	9
CCOC(=O)N1CCc2c(sc3c2c(=O)n(Cc2ccccc2)c(=O)n3CC(=O)Nc2cccc(CC)c2)C1	11
O=C(Nc1cccc(F)c1)C1CCCN(S(=O)(=O)c2ccccc2)C1 (configuration not stated)	15
CC1Cc2ccccc2N1S(=O)(=O)c1cccc2nsnc12 (configuration not stated)	31

(cont.)
SMILES	TRPML1 agonist	TRPML1 inh	Six1-Eya2 inh	D2 PAM	D2 ag	PINK1 expr mod
COc1cccc(-c2sc3ccc(OC)cc3c2-c2ccc(OCCN3CCCC3)cc2)c1	0.7	0	-21	nt	8.5	-0.9%
CN(Cc1c(C(=O)N/N=C/c2cccc(O)c2)nnn1-c1nonc1N)C1CCCCC1	0.6	12	16	-9	1.8	3.7%
CS(=O)(=O)N1CCN(C(=O)c2cccnc2)CC1	1.4	-10	-3	-3	-0.3	0.3%[38.3 µM]
NC12CC3CC(CC(C3)C1)C2	-0.6	2	0	3	-0.5	-0.3%
CCOc1ccc(NC(=O)CSc2ncc(S(=O)(=O)c3ccc(F)c(C)c3)c(=O)[nH]2)cc1	1.0	-10	nt	nt	nt	-1.5%
O=C(NCCCC1CCCC1)C1CCC(=O)N(Cc2cccc(C(F)(F)F)c2)C1 (configuration not stated)	1.0	-8	9	-21	-5.7	-0.2%
Cc1ccc(S(=O)(=O)Nc2ccc3c(c2)OCCO3)c(C)c1NS(C)(=O)=O	0.0	5	1	1	5.3	1.0%
CC(=O)Nc1ccc(OCC(=O)NCc2ccc(C)cc2)cc1	-0.1	-4	5	-2	-4.4	2.3%
CCOc1ccccc1C(=O)NC(C(=O)OCC(=O)NNC(=O)c1cccs1)C(C)C (configuration not stated)	-0.8	10	-8	-12	-2.3	-0.5%
Cc1cc(C)cc(N2C(=O)N(c3ccccc3C)C3CS(=O)(=O)CC32)c1 (configuration not stated)	-0.1	1	-1	3	-1.1	nt
CCOc1ccccc1NC(=S)NC(=O)CCc1ccccc1	0.6	23	3	-8	-2.1	-1.1%
CCOC(=O)C(CCOc1cccc(CC)c1)C(=O)OCC	1.4	-1	37	-16	-1.0	-0.4%
Cn1c2ccccc2c2ncn(CCCN3CCOCC3)c(=O)c21	-0.2	-16	-3	-6	-1.6	-1.8%
O=C1NC[C@H](CCCCN2C[C@H](Cc3ccccc3)N(CC3CCCCC3)C(=O)C2=O)N(CCc2ccc(O)cc2)C1=O	-0.5	nt	-4	nt	nt	-0.2%
CCOC(=O)C1CCN(C(=O)c2nn(-c3ccc(C)cc3)c(=O)c3c2c2ccccc2n3C)CC1	0.8	1	nt	nt	nt	2.4%

Molecules from the list above with an NH in an aromatic ring:
SMILES	TRPML1 agonist	TRPML1 inh	Six1-Eya2 inh	D2 PAM	D2 ag	PINK1 expr mod
CCn1c(N)c(C(=O)COC(=O)CCc2nc3ccccc3c(=O)[nH]2)c(=O)[nH]c1=O	1.3	-6	6	-1	-3.1	?
CCCc1c(O)nc(SC2CC(=O)N(c3ccc(C)c(Cl)c3)C2=O)[nH]c1=O (configuration not stated)	0.5	-10	-1	-9	-3.2	-0.7%
CCOc1ccc(NC(=O)CSc2ncc(S(=O)(=O)c3ccc(F)c(C)c3)c(=O)[nH]2)cc1	1.0	-10	nt	nt	nt	-1.5%
